High-throughput results (PubChem BioAssay)
OX1R antag-1: antagonists of human orexin 1 receptor (OX1R); AID 485270; hit rate 1.8% among 330,000; OX1R-expressing cells, FRET antagonist read-out; inhibition, % at 6.6 µM; O43613; in the data active = inhibition mostly above about 38%, no sharp cut-off; inactive = mostly below about 40%;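 note: 0% = agonist challenge alone and 100% = reference antagonist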
Target sequence (O43613 whole entry, looked up): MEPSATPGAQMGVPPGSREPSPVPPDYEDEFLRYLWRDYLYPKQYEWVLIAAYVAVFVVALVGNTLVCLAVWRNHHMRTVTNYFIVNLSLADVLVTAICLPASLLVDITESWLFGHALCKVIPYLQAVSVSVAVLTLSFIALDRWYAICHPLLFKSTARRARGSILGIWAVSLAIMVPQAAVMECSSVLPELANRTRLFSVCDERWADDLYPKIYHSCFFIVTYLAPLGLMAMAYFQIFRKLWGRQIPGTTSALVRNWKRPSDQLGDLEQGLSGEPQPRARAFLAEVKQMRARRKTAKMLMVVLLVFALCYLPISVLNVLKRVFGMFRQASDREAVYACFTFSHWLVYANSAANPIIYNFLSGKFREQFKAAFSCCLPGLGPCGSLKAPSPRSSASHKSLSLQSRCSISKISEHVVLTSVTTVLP
OX1R antag-2: antagonists of human orexin 1 receptor. O43613. CHO/OX1R cells, Fluo-8 calcium fluorescence, orexin A. inhibition, % at 5 µM. hit rate 0.43% among 330,000. AID 434989;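 active = inhibition above its plate's threshold, mean inhibition of all tested compounds on the plate plus 3 SD, cut at about 37% in these data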;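 note: 0% = orexin A challenge wells and 100% = SB-334867-A antagonist wells; not every result past the cut was called active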
An asterisk follows results filed as active.

nr	OX1R antag-2	OX1R antag-1	SMILES
1	-3	13	COc1cc(NC(=O)C2CCC(CNc3c(N4CCCCC4)c(=O)c3=O)CC2)cc(OC)c1 (stereo not drawn)
2	-17	31	CS(=O)(=O)NCCSCc1ccc(Cl)cc1
3	-7	8	CN(C(=O)c1ccccc1C(=O)c1ccccc1)C1CCS(=O)(=O)C1 (stereo not drawn)
4	3	39	COC(=O)c1[nH]c(C)c(/C(O)=C2\C(=O)C(=O)N(CCN(C)C)C2c2ccc(C)o2)c1C (stereo not drawn)
5	-38	23	O=C(NCCN1CCN(c2ccccc2F)CC1)C1c2ccccc2C(=O)N2CCc3ccccc3C12 (stereo not drawn)
6	-25	33	Cc1nc(NC(=O)CC(C)C)sc1-c1csc(Nc2ccc(Cl)cc2Cl)n1
7	-26	3	COc1ccc(CCNC(=O)c2ccc(CS(=O)Cc3ccc(C)cc3)o2)cc1OC (stereo not drawn)
8	-17	15	NC(=O)CCN1CCN(S(=O)(=O)/C=C/c2ccccc2)CC1
9	-21	12	Cc1ccc(-n2c(SCC(=O)NCc3ccco3)nnc2-c2cccnc2)c(C)c1
10	4	3	O=C(CN1C(=O)c2ccccc2S1(=O)=O)NCc1ccc(F)cc1
11	-2	21	N#CCc1ccc(C(=O)c2ccccc2F)s1
12	-12	4	O=C1CC(N2CCCCCC2)C(=O)N1c1ccc(F)cc1 (stereo not drawn)
13	-20	18	Cc1ccccc1OCC(=O)NN1Cc2ccccc2C1=N
14	-12	12	CN(C)c1ccc(CNC2C3CC4CC(C3)CC2C4)cc1 (stereo not drawn)
15	-22	11	Cc1cccc(/C=N/Nc2nncc3ccccc23)c1
16	-21	14	O=C(CCNC(=O)c1ccco1)Nc1ccccc1
17	-21	3	CCOc1ccc(N(C(=O)/C=C/C(=O)Nc2cc(C)on2)C(C(=O)NC2CCCC2)c2ccccc2C)cc1 (stereo not drawn)
18	-10	26	Cc1ccccc1-n1c(C)nnc1SCc1nc2ccccc2s1
19	-17	14	CSc1ccc(C2C3(C#N)C(N)=NC4(OCCO4)C23C#N)cc1 (stereo not drawn)
20	3	9	CS(=O)(=O)Nc1cccc(C(=O)CC2(O)C(=O)Nc3ccccc32)c1 (stereo not drawn)

(more compounds)
nr	OX1R antag-2	OX1R antag-1	SMILES
21	-17	18	O=C(NN1C(=O)/C(=C\c2cccnc2)SC1=S)C(c1ccccc1)c1ccccc1
22	-17	7	O=C(NCc1ccccc1)c1ccc(Cl)cc1
23	-3	4	Nc1c(NCCN2CCOCC2)c2ccccc2oc1=O
24	-19	15	Cc1ccc(NC(=O)c2cccc3c2C(=O)N(C2CCCCC2)C3)c(Cl)c1
25	7	6	CC(C)=CCC[C@](C)(O)C1CC[C@]2(C)C1C(O)CC1[C@@]3(C)CCC(O)C(C)(C)C3C(O[C@@H]3OC(CO)C(O)C(O)C3O[C@@H]3OC(C)C(O)C(O)C3O)C[C@]12C (stereo partly drawn)
26	-15	14	COC(=O)C(C)Sc1nc(N)c(NC(=O)c2ccco2)c(=O)[nH]1 (stereo not drawn)
27	-13	6	CC(C)n1cc(CN2CCCC(CO)(Cc3cccc(Cl)c3)C2)cn1 (stereo not drawn)
28	-17	5	CCOc1ccc2nc3sc(C(=O)N4CCOCC4)c(N)c3cc2c1
29	-15	26	COc1ccc(OCC(Cn2cnc3ccccc32)OC(C)=O)cc1 (stereo not drawn)
30	-15	12	Cc1ccc(/C=N/n2c(C3CCCCC3)n[nH]c2=S)s1
31	-28	15	Cc1ccccc1C(OCCN(C(C)C)C(C)C)c1ccccc1 (stereo not drawn)
32	-7	5	COc1ccc(-c2nc(C#N)c(N3CCC(C(N)=O)CC3)o2)cc1OC
33	-12	30	COCCn1c(N)c(C(=O)OCc2ccccc2)c2nc3ccccc3nc21
34	-1	9	Cn1c(CC(=O)Nc2ccccc2Cl)nnc1SCC(=O)NC1=NCCS1
35	-2	5	CSc1nc(N)nc2c1ncn2CC(=O)N1CCN(c2ccccn2)CC1
36	0	11	Cc1ccc2nc(C3CCN(S(=O)(=O)c4ccc5ccccc5c4)CC3)[nH]c2c1
37	-18	14	Cn1c(Cn2c(=O)sc3ccccc32)nnc1SCC(=O)NC1CCCC1
38	-12	9	Cc1cc(C)c(NC(=S)NC(=O)c2ccc(-c3ccccc3)cc2)c(C)c1
39	-11	7	C=C(C)Cn1c(N(CCO)Cc2ccccc2)nc2c1c(=O)[nH]c(=O)n2C
40	-2	13	CCOC(=O)C1(CC2CCCCO2)CCN(C(=O)Nc2ccccc2CC)CC1 (stereo not drawn)

(continued)
nr	OX1R antag-2	OX1R antag-1	SMILES
41	-1	10	CCOC(=O)c1c(NC(=O)CC2Sc3ccc(C(F)(F)F)cc3NC2=O)sc(C)c1C (stereo not drawn)
42	-17	1	O=S(=O)(Nc1cc(S(=O)(=O)N2CCOCC2)ccc1O)c1ccc2c(c1)OCCCO2
43	-14	18	CN(C)c1ccc(CNCCC2(O)CCOC(C)(C)C2)cc1 (stereo not drawn)
44	-14	9	Cc1ccccc1OCC(O)Cn1c(N2CCN(c3ccccc3)CC2)nc2c1c(=O)[nH]c(=O)n2C (stereo not drawn)
45	-41	13	CCOc1ccccc1NC(=O)C1C2CCC3C(CCC21)C3(Cl)Cl (stereo not drawn)
46	-7	41	NS(=O)(=O)c1ccc(CNC(=O)c2ccc(Cl)c([N+](=O)[O-])c2)cc1
47	-17	18	Cc1c(NC(=O)C(C)N2C(=O)C3C4C=CC(C4)C3C2=O)c(=O)n(-c2ccccc2)n1C (stereo not drawn)
48	-17	-6	O=C(CCNC(=O)c1ccc(Br)cc1)NC1CCCCCC1
49	-3	50	CCOc1ccccc1N(CC(=O)NC1CCCCC1)C(=O)c1nsc(Cl)c1Cl
50	8	0	COc1ccc(CCn2c(O)c(C3=c4ccccc4=NC3=O)sc2=S)cc1OC
51	-3	19	COc1ccc2[nH]c(C)c(C(=O)CN3CCN(C/C=C/c4ccccc4)CC3)c2c1
52	9	-7	Cc1ccccc1C(=O)NCCCn1ccnc1
53	-8	28	CN(C)CCC(=O)N1c2ccccc2Sc2ccc(C(F)(F)F)cc21
54	-51	23	CCc1ccc2[nH]c(=O)c(CN(CCCN3CCOCC3)C(=O)Nc3ccccc3)cc2c1
55	-16	0	CS(=O)(=O)N(CC(=O)N1CCCCCC1)c1cccc(F)c1
56	-7	25	O=C(NCC(=O)N(c1ccc(F)cc1)C(C(=O)NC1CCCCC1)c1ccncc1)c1ccco1 (stereo not drawn)
57	-18	34	COC(=O)c1sc(NC(=O)COc2ccc(C)cc2)nc1C
58	-5	7	CC(C)[C@@H](N)C(=O)NCC1CCC(C(=O)N[C@@H](Cc2ccccc2)C(=O)O)CC1 (stereo partly drawn)
59	3	55	Cc1cc(C)nc(N/N=C/c2cccc([N+](=O)[O-])c2)n1
60	-11	9	CCCNC(=O)COc1coc(CN2CCN(c3ccccc3)CC2)cc1=O

A second format for part of the listing above.
Values in the order – OX1R antag-2, OX1R antag-1
[36] Cc1ccc2nc(C3CCN(S(=O)(=O)c4ccc5ccccc5c4)CC3)[nH]c2c1
    0, 11
[37] Cn1c(Cn2c(=O)sc3ccccc32)nnc1SCC(=O)NC1CCCC1
    -18, 14
[38] Cc1cc(C)c(NC(=S)NC(=O)c2ccc(-c3ccccc3)cc2)c(C)c1
    -12, 9
[39] C=C(C)Cn1c(N(CCO)Cc2ccccc2)nc2c1c(=O)[nH]c(=O)n2C
    -11, 7
[40] CCOC(=O)C1(CC2CCCCO2)CCN(C(=O)Nc2ccccc2CC)CC1 (stereo not drawn)
    -2, 13
[41] CCOC(=O)c1c(NC(=O)CC2Sc3ccc(C(F)(F)F)cc3NC2=O)sc(C)c1C (stereo not drawn)
    -1, 10
[42] O=S(=O)(Nc1cc(S(=O)(=O)N2CCOCC2)ccc1O)c1ccc2c(c1)OCCCO2
    -17, 1
[43] CN(C)c1ccc(CNCCC2(O)CCOC(C)(C)C2)cc1 (stereo not drawn)
    -14, 18
[44] Cc1ccccc1OCC(O)Cn1c(N2CCN(c3ccccc3)CC2)nc2c1c(=O)[nH]c(=O)n2C (stereo not drawn)
    -14, 9
[45] CCOc1ccccc1NC(=O)C1C2CCC3C(CCC21)C3(Cl)Cl (stereo not drawn)
    -41, 13
[46] NS(=O)(=O)c1ccc(CNC(=O)c2ccc(Cl)c([N+](=O)[O-])c2)cc1
    -7, 41
[47] Cc1c(NC(=O)C(C)N2C(=O)C3C4C=CC(C4)C3C2=O)c(=O)n(-c2ccccc2)n1C (stereo not drawn)
    -17, 18
[48] O=C(CCNC(=O)c1ccc(Br)cc1)NC1CCCCCC1
    -17, -6
[49] CCOc1ccccc1N(CC(=O)NC1CCCCC1)C(=O)c1nsc(Cl)c1Cl
    -3, 50
[50] COc1ccc(CCn2c(O)c(C3=c4ccccc4=NC3=O)sc2=S)cc1OC
    8, 0
[51] COc1ccc2[nH]c(C)c(C(=O)CN3CCN(C/C=C/c4ccccc4)CC3)c2c1
    -3, 19
[52] Cc1ccccc1C(=O)NCCCn1ccnc1
    9, -7
[53] CN(C)CCC(=O)N1c2ccccc2Sc2ccc(C(F)(F)F)cc21
    -8, 28
[54] CCc1ccc2[nH]c(=O)c(CN(CCCN3CCOCC3)C(=O)Nc3ccccc3)cc2c1
    -51, 23
[55] CS(=O)(=O)N(CC(=O)N1CCCCCC1)c1cccc(F)c1
    -16, 0
[56] O=C(NCC(=O)N(c1ccc(F)cc1)C(C(=O)NC1CCCCC1)c1ccncc1)c1ccco1 (stereo not drawn)
    -7, 25
[57] COC(=O)c1sc(NC(=O)COc2ccc(C)cc2)nc1C
    -18, 34

Later entries:
nr	OX1R antag-2	OX1R antag-1	SMILES
61	16	20	Cc1cc(C)cc(NC(=O)Cc2ccc(-n3cccc3)cc2)c1
62	-19	25	O=C(CN(C(=O)c1csnn1)c1cccc2c1CCCC2)NCc1ccc(F)cc1
63	-18	-6	Cc1cc(C)c2c(CC(=O)Nc3nccs3)coc2c1
64	-19	16	CCc1nc(Cl)c(C#N)c2c1CCCC2
65	-40	25	O=C(Nc1cc(C(F)(F)F)ccc1N1CCOCC1)c1ccc(Br)o1
66	2	1	CC(=O)Nc1ccc(NC(=O)c2ccc(OCc3c(C)noc3C)cc2)cc1
67	-18	13	Cc1cc(C(=O)OCC(=O)Nc2cc(S(=O)(=O)N3CCOCC3)ccc2Cl)c(C)o1
68	-30	1	Cc1ccc(C)c(Cn2nc(-c3ccccc3)ccc2=O)c1
69	-21	10	N#Cc1ccccc1OCC(=O)NCCNC(=O)COc1ccccc1C#N
70	-16	-6	COc1ccc(/C=C(\NC(=O)c2ccc(C)cc2)C(=O)Nc2ccc(C(=O)O)cc2)cc1
71	-34	10	COc1cccc(CNc2ncc(C(=O)Nc3cc(OC)c(OC)c(OC)c3)c(C)n2)c1
72	-25	6	O=C(Cn1ccc(NC(=O)OCc2ccccc2)nc1=O)NCCCc1ccccc1
73	-9	6	Cc1cccc(N2C(=O)C3CC3C2=O)c1 (stereo not drawn)
74	-19	-4	C/C(=N\NC(=O)Cc1ccccc1Cl)c1cccnc1
75	8	4	COc1ccc(NC(=O)CN(C)C(=O)CN2C(=O)NC3(CCCCC3)C2=O)cc1
76	-25	14	Cc1ccccc1NS(=O)(=O)c1ccc2c(c1)NC(=O)CO2
77	-8	13	Cc1ccc2nc(NC(=O)CSc3nc4c(c(=O)n3C)SC(C)C4)sc2c1 (stereo not drawn)
78	-14	20	CCOC(=O)c1ccc(N2C(=O)C=C(N3CCOCC3)C2=O)cc1
79	1	22	Nc1nnc(CSCc2ccc(Cl)cc2Cl)s1
80	-1	14	CCCc1cc(=O)oc2cc(C)cc(OCC(=O)NC(Cc3ccc(Cl)cc3)C(=O)O)c12 (stereo not drawn)

(more compounds)
nr	OX1R antag-2	OX1R antag-1	SMILES
81	-4	8	C/C(=N\NC(=O)c1cccc(F)c1)c1ccc(Br)s1
82	-16	5	COc1ccc(-c2noc(CCC(=O)Nc3nc4ccccc4s3)n2)cc1
83	-14	15	CCCCNC(=S)N(CCCO)Cc1cc2cc3c(cc2[nH]c1=O)OCCO3
84	-12	27	O=S1(=O)CC(O)C(NCCO)C1 (stereo not drawn)
85	-6	23	O=C(CCNc1n[nH]c(=O)[nH]c1=O)N/N=C\c1cccc(OCc2ccccc2)c1
86	-3	8	Cc1oncc1-c1csc(-c2ccccc2)n1
87	-10	6	Cc1nn(C)cc1CNC(=O)C1(C)CC1(Cl)Cl (stereo not drawn)
88	-11	58	CC(=O)N1CCC(=NNc2ccc(S(=O)(=O)N3CCOCC3)cc2[N+](=O)[O-])CC1
89	-7	16	O=C(CSc1nnc(-c2ccc(Br)cc2)n1CCc1ccccc1)NC1CCS(=O)(=O)C1 (stereo not drawn)
90	-23	10	Cc1ccc(N/C=C2/Sc3ccccc3NC2=O)cc1
91	-15	31	Cc1cc(C)cc(NC(=O)N2CCCN(c3ncccc3[N+](=O)[O-])CC2)c1
92	-13	24	O=C(CSc1c[nH]c2ccccc12)NCc1ccc2c(c1)OCO2
93	-5	13	O=C(NCC1CCCO1)C1CCC(CNS(=O)(=O)c2ccccc2)CC1 (stereo not drawn)
94	-24	2	COCCn1c(C)cc(C(=O)CSc2ncn[nH]2)c1C
95	-10	0	COc1ccc(NC(=O)CCCC(=O)OCC(F)(F)C(F)F)cc1

This is a subset; most or all hits stand in other tables.
